ALR inh – inhibitors of human ALR sulfhydryl oxidase, primary screen, biochemical, H2O2 detection, HRP-luminol luminescence, single point; FAD-linked sulfhydryl oxidase ALR (Homo sapiens), P55789; purified ALR, DTT oxidation; inhibition, % (no concentration beside the values); actives 3.8% (n = 290,000);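 active = mean and each replicate at 75% or more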;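 note: stock transfer was 7.5 nL into about 7.5 µL; 0% = neutral wells and 100% = wells with inactivated enzyme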
Target sequence (P55789 whole entry, looked up): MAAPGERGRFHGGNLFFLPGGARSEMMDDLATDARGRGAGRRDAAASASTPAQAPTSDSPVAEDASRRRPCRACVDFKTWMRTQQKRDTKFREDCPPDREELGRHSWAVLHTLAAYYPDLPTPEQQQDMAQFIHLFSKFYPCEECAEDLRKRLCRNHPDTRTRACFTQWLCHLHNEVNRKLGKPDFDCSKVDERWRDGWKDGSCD
Ecoli growth – E. coli growth inhibition, primary screen, OD600; OD600 absorbance (concentration not given with the values); AID 1053175, 2014; Escherichia coli growth, 23 h; stronger effect = lower value; actives 0.21% (n = 330,000);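 active = OD600 absorbance below the run mean of sample wells minus 3.6 SD, in any replicate, cut at about 0.56 in these data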;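 note: stock transfer was 300 nL into about 60 µL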
Ecoli rRNA inh – reduced GFP signal of wild-type E. coli, primary screen, bacterial rRNA inhibitor project, GFP/RFP fluorescence, OD600, single point. E. coli WT GFP vs humanized-ribosome RFP mutants, 24 h; stronger effect = lower value; DMSO median 0, no signal -100. GFP signal change (wild-type ribosome), % (no concentration beside the values). actives 1.6% (n = 350,000). AID 720706, 2013;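 active = significant combined selectivity score with lowered wild-type GFP, culture density cut under 30%, mutant RFP and density less affected; inactive = any of these conditions unmet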; note: one replicate is shown; some compounds called inactive have numbers as strong as hits
Beta2AR agonist – beta2AR agonists driving receptor internalization, primary screen, cell-based, FAP fluorogen, flow cytometry; AID 504454, 2011; response, % (no concentration beside the values); actives 0.43% (n = 340,000); Am2.2-beta2AR cells; reference of the scale not given here;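 active = response above a set limit, near 3 SD of response in nonfluorescent compounds, cut at about 42% in these data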;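 note: stock transfer was 100 nL into about 11 µL; a reference agonist was the positive control; negative values mostly stem from fluorescent compounds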
UCH37 inh – inhibitors of human UCH37 deubiquitinase, primary screen, biochemical, Ub-AMC cleavage, fluorescence | Ubiquitin carboxyl-terminal hydrolase isozyme L5 (Homo sapiens), Q9Y5K5 | purified proteasome/UCH37 | inhibition, % (concentration not given with the values) | actives 0.33% (n = 330,000) | AID 588478, 2011;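 active = mean of two replicates above 20%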;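 note: 0% = compound-free wells with enzyme and 100% = wells lacking proteasome; stock transfer was 100 nL into about 20 µL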
Target sequence (Q9Y5K5 whole entry, looked up): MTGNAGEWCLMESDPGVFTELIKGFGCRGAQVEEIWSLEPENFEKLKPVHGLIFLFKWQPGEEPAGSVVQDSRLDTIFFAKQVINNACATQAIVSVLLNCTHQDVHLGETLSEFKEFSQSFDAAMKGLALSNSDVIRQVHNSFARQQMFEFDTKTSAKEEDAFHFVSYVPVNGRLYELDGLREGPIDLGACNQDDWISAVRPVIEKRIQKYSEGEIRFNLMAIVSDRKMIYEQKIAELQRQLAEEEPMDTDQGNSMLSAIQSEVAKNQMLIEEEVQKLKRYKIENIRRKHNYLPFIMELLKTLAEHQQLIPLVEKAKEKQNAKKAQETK
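Material: Human UCH37 enzyme supplied as purified proteasome complex | Schedule: 30 min preincubation with enzyme, 25 min cleavage at room temperature | Detection: AMC fluorescence 355/460 nm | Measure: % inhibition of Ub-AMC cleavage fluorescence | Controls: Wells without proteasome as full block, compound-free enzyme plus substrate as uninhibited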
HNF4A DNA FP – change in binding of human HNF4A to DNA, primary screen, biochemical, fluorescence polarization, FITC-DNA. Hepatocyte nuclear factor 4-alpha (Homo sapiens), P41235. 1 h. activity change, % at 10 µM. actives 0.3% (n = 360,000). AID 1224865, 2016; in the data active = activity change above about 30%, passing the limit was not always enough;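 note: controls were the assay level and a saturating level of protein; the project sought stronger binding though the title names inhibitors; some compounds called inactive have numbers as strong as hits; positive values seem to mean higher polarization but the record does not say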
FGF22 binding – binders of human FGF22 protein, primary screen, FGF22 synaptogenesis inhibitor project, biophysical, thermal shift, single point. Fibroblast growth factor 22 (Homo sapiens), Q9HCT0. recombinant FGF22 thermal shift, SYPRO orange fluorescence; percent of sucrose octasulfate shift, DMSO zero. calls only at 9.99 µM. actives 1.5% (n = 340,000). AID 651658, 2012;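 active = melting point raised past a set limit in the mean and every replicate; three in four hits are not shown here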
Target sequence (Q9HCT0 whole entry, looked up): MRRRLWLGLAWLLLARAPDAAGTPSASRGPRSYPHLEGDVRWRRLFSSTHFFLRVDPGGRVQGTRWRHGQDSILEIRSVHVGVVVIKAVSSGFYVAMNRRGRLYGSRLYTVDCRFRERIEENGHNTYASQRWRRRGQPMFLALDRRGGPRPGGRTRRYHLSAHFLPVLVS
Ecoli rRNA inh OD600 – also measured in Ecoli rRNA inh; calls as there; OD600 change, %; measured here: OD600 growth;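 optical density of the mix in the first replicate; 0 = DMSO median and -100 = no signal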
Ecoli rRNA inh RFP – also measured in Ecoli rRNA inh; calls as there; RFP signal change, %; measured here: RFP humanized mutant strains;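 first replicate; 0 = DMSO median and -100 = no signal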
* hit, by the source's call; i = inactive; . = not tested or not shown.

SMILES	ALR inh	Ecoli growth	Ecoli rRNA inh	Ecoli rRNA inh OD600	Ecoli rRNA inh RFP	Beta2AR agonist	UCH37 inh	HNF4A DNA FP	FGF22 binding
C=CCn1cc(/C=N/N2C(=O)C3C4C=CC(C4)C3C2=O)c2ccccc21 (stereo not drawn)	11	.	8	-2	-7.1	3	.	1.3	i
CC(=O)Nc1ccc(NC(=O)CSc2nc3ccccc3nc2N2CCC(C)CC2)cc1	.	0.7	6	1	-4.9	4	-8.3	-1.9	i
O=C(/C=C/c1ccccc1)C1=C(O)C(=O)N(CCO)C1c1cccc([N+](=O)[O-])c1 (stereo not drawn)	5	.	10	4	0.7	0	.	2.1	i
Cc1ccccc1NS(=O)(=O)c1ccc(OCC(=O)NCc2ccccn2)cc1	2	0.73	3	8	1.5	-2	0.5	5.9	i
Nn1c(SCC(=O)N2CCOCC2)nnc1-c1ccco1	-6	0.69	.	.	.	3	5.7	-2.0	.
CCOC(=O)c1ccc(NC(=O)Nc2nncs2)cc1	.	.	3	9	-1.8	.	.	-0.4	i
COc1ccccc1CNC(=O)c1cn(C)c2ccc(S(=O)(=O)N3CCCC3)cc2c1=O	1	0.68	3	7	-4.4	-3	2.9	4.6	i
O=C(COC(=O)/C=C/c1cccs1)NC1CC1	4	0.65	14	21	0.9	3	3.6	2.3	i
CC(C)C(=O)Nc1nnc(Cc2ccccc2)s1	.	0.63	-9	2	-8.0	6	3.3	1.1	i
C=CCNC(=S)Nc1ccc(C)c(S(=O)(=O)N2CCCCC2)c1	1	0.69	1	1	3.9	-2	1.3	1.9	i
CCOC(=O)[C@]12CCCC=C1N(Cc1ccco1)C(=O)[C@H](CC(=O)NCC13CC4CC(CC(C4)C1)C3)C2	.	.	3	-4	2.3	.	.	0.3	i
COc1cc(-c2cc(NC(C)=O)c3ncc(-c4ccccc4)n3c2)cc(OC)c1OC	.	.	3	3	1.2	.	.	5.4	i
Cc1ccc(NC(=O)CSc2nnc(Cc3csc(C)n3)o2)cc1	47	0.65	1	6	-2.1	-28	4.3	-2.3	i
C=CCN(c1ccc(OC)cc1)S(=O)(=O)c1ccc(Cl)c(C(=O)OCC(=O)c2c(N)n(C)c(=O)n(C)c2=O)c1	.	0.66	.	.	.	10	2.8	2.0	i
c1ccc(-c2nc3ccccc3c3nncn23)cc1	-4	.	.	.	.	9	.	-5.0	.
Cc1c(CCO)c(=O)[nH]n1S(=O)(=O)c1cccc(C(F)(F)F)c1	3	0.69	-5	-4	-0.2	-33	-0.5	0.2	i
CN(C)C(C)(C)C#CCCCCC#CC(C)(C)N(C)C	-17	0.72	.	.	.	4	2.7	0.9	.
CC(=O)Nc1cccc(C(=O)OCN2C(=O)c3ccccc3C2=O)c1	1	0.71	10	11	5.2	0	4.5	-0.6	i
CC(C)(C)n1nnnc1C(c1cccs1)N1CCCc2ccccc21 (stereo not drawn)	-10	0.72	.	.	.	2	0.2	0.0	.
CCS(=O)(=O)N1CCCC(C(=O)NCCc2ccccc2)C1 (stereo not drawn)	-7	0.68	.	.	.	-4	1.4	-0.9	.
CCc1ccc(N(CC(=O)O)S(=O)(=O)c2c(C)noc2C)cc1	1	0.71	-1	-2	-0.3	6	0.4	-1.2	i
N#C/C(=C1\CCCN1)c1ccc2ccccc2n1	-4	.	.	.	.	5	5.4	6.0	.
CCCC(c1nnnn1C1CCCCC1)N1CCN(c2ncccn2)CC1 (stereo not drawn)	-17	0.69	.	.	.	12	2.2	0.5	.
C#CCOCCOCCOCCNc1nc(N2CCOCC2)nc(N2CCN(C(=O)[C@H]([C@@H](C)CC)n3cc([C@@H](N)Cc4ccc(O)cc4)nn3)CC2)n1	-5	.	.	.	.	4	1.9	-5.3	.
Cc1cc(C)n(-c2nc3c(c(=O)[nH]c(=O)n3C)n2Cc2cccc(Br)c2)n1	1	0.69	.	.	.	3	2.4	-1.7	.
CCN(CCCNS(=O)(=O)c1cc(-c2cc(C)no2)ccc1C)Cc1ccccc1	0	.	-5	-8	1.2	-16	.	-4.8	i
COc1cc(NS(=O)(=O)c2ccc(NS(=O)(=O)c3ccccc3)cc2)nc(OC)n1	-2	0.68	.	.	.	6	-0.7	3.2	.
CC1CCN(C(=S)c2cccc(O)c2)CC1	-2	0.7	3	2	3.4	3	6.7	-1.6	i
COc1ccc(-n2nc(C(=O)NCC(=O)NCc3ccco3)c3ccccc3c2=O)c(OC)c1	-17	0.73	.	.	.	2	-0.8	-2.8	.
Cc1ccc(NC(=O)c2cnn(-c3ccccc3)c2C)cc1C	59	0.57	1	-2	-2.9	4	3.2	2.3	i

Single records, from the list above. Order of values: ALR inh, Ecoli growth, Ecoli rRNA inh, Ecoli rRNA inh OD600, Ecoli rRNA inh RFP, Beta2AR agonist, UCH37 inh, HNF4A DNA FP, FGF22 binding
Cc1c(CCO)c(=O)[nH]n1S(=O)(=O)c1cccc(C(F)(F)F)c1 across the screens: 3, 0.69, -5, -4, -0.2, -33, -0.5, 0.2, i
Cc1cc(C)n(-c2nc3c(c(=O)[nH]c(=O)n3C)n2Cc2cccc(Br)c2)n1 across the screens: 1, 0.69, ., ., ., 3, 2.4, -1.7, .
CC(C)(C)n1nnnc1C(c1cccs1)N1CCCc2ccccc21 (stereo not drawn) across the screens: -10, 0.72, ., ., ., 2, 0.2, 0.0, .
CCN(CCCNS(=O)(=O)c1cc(-c2cc(C)no2)ccc1C)Cc1ccccc1 across the screens: 0, ., -5, -8, 1.2, -16, ., -4.8, i
Cc1ccc(NC(=O)c2cnn(-c3ccccc3)c2C)cc1C across the screens: 59, 0.57, 1, -2, -2.9, 4, 3.2, 2.3, i

Going on with the list:
SMILES	ALR inh	Ecoli growth	Ecoli rRNA inh	Ecoli rRNA inh OD600	Ecoli rRNA inh RFP	Beta2AR agonist	UCH37 inh	HNF4A DNA FP	FGF22 binding
CCCS(=O)(=O)NC(=O)C1(C)CCCN(C(=O)c2ccc(C(F)(F)F)nc2C)C1 (stereo not drawn)	.	.	11	14	6.8	.	.	-0.8	i
O=C(CCl)c1cc2c3c(c1)CC(=O)N3CCC2	98*	.	6	14	0.1	12	.	-1.3	i
CC(C)Cn1c(N)c(C(=O)COC(=O)CC23CC4CC(CC(C4)C2)C3)c(=O)n(C)c1=O	-1	0.68	.	.	.	27	2.6	2.4	.
Cc1ccc(S(=O)(=O)NC(=O)Nc2nnc(C3CC3)s2)cc1	18	0.7	.	.	.	10	3.5	-1.6	.
CC(NCCC1(C(C)C)CCOC(C)(C)C1)c1cccs1 (stereo not drawn)	3	0.67	12	1	0.3	0	6.3	-4.2	i
Cc1ccnc(NC(=O)c2ccc(Cl)c(S(=O)(=O)N3CCCC3)c2)c1	4	0.67	-10	-3	-0.4	-2	4.9	-0.4	i
CCCCCN(C(=O)CCC(=O)OCCOc1ccc(OC)cc1)c1c(N)n(CCCC)c(=O)[nH]c1=O	2	0.67	.	.	.	-11	-0.9	1.1	.
CCC(NC(=O)c1ccc([N+](=O)[O-])cc1[N+](=O)[O-])c1ccccc1 (stereo not drawn)	-20	0.7	.	.	.	-6	1.0	2.0	.
Cc1ccc(S(=O)(=O)Cn2nnnc2C(C(C)C)N2CCSCC2)cc1 (stereo not drawn)	-7	0.61	-4	-22	1.6	11	0.6	0.5	i
CC1CCCC(NC(=O)c2ccc(COc3ccccc3)o2)C1C (stereo not drawn)	15	0.69	-29	-47	-7.1	0	2.9	-1.9	i
Oc1ccc2ccccc2c1N=Nc1ccc(F)cc1	-2	0.73	0	2	7.7	5	4.4	4.4	i
O=C(O)/C=C\C(=O)Nc1ccc(OC(F)F)cc1	28	0.68	16	11	3.3	-2	1.9	-0.4	i
CC1=C(C(=O)Nc2ccccc2)C(c2ccc(Cl)cc2)n2c(s/c(=C/c3cccc(OCC(=O)O)c3)c2=O)=N1 (stereo not drawn)	52	.	-13	-17	0.8	9	.	5.3	.
COc1ccc(OC)c(C(=O)COC(=O)c2ccc([N+](=O)[O-])o2)c1	-57	0.63	-20*	-3.1*	-6.7*	6	5.4	-3.6	i
CCc1sc(-c2c(C#N)c(N)nc3c2CCCCCC3)cc1[N+](=O)[O-]	0	0.72	.	.	.	5	1.8	0.1	.

Records above marked active in ALR inh:
Structure	ALR inh	Ecoli rRNA inh	Ecoli rRNA inh OD600	Ecoli rRNA inh RFP	Beta2AR agonist	UCH37 inh
O=C(CCl)c1cc2c3c(c1)CC(=O)N3CCC2	98*	6	14	0.1	12	.

Next compounds follow:
SMILES	ALR inh	Ecoli growth	Ecoli rRNA inh	Ecoli rRNA inh OD600	Ecoli rRNA inh RFP	Beta2AR agonist	UCH37 inh	HNF4A DNA FP	FGF22 binding
COCCN(CCOC)S(=O)(=O)c1ccc(Cl)nc1	.	0.69	12	5	0.3	-7	0.5	-0.3	i
Nc1c(Br)cc2oc(-c3ccccc3)nc2c1Br	-1	0.7	.	.	.	-14	-1.0	-1.1	.
CN(Cc1ccccc1)S(=O)(=O)c1ccc(Cl)c(C(=O)OCC(=O)NC2CCS(=O)(=O)C2)c1 (stereo not drawn)	1	0.67	-12	-17	-1.2	4	3.2	4.4	i
N#Cc1cnn2c(C(F)(F)F)c3c(nc12)CCCC3	-4	0.63	8	9	2.5	5	-5.7	1.6	i
CCOC(=O)c1cc(-c2ccco2)nn1-c1ccc(C)cc1	25	0.66	-13	-14	3.1	7	-0.1	5.0	i
OC(c1ccc(F)cc1)c1ncc(-c2ccccc2F)[nH]1 (stereo not drawn)	.	.	5	6	0.0	.	.	0.9	i
Cc1ccc(C(=O)CCC(=O)OCc2nnc(-c3ccccc3)o2)cc1	0	0.64	-8	-3	2.6	4	1.0	2.0	i
Cc1ccc(Cn2ccc(NC(=O)c3cc(-c4ccco4)on3)n2)cc1	0	0.69	-6	0	7.5	4	2.8	16	.
COCCn1cnnc1SCC(=O)Nc1ccc(Br)cc1F	-7	0.72	10	6	1.7	2	3.3	1.9	i
O=C(O)CC(NS(=O)(=O)c1ccc(Br)cc1)c1ccco1 (stereo not drawn)	.	0.72	.	.	.	2	-0.9	-2.9	.
CCOC(=O)[C@]12CCCC=C1N(Cc1ccccc1)C(=O)[C@H](CC(=O)NCc1cccs1)C2	.	.	-7	-7	-7.3	.	.	-2.6	i
O=C(NCCN1C(=O)S/C(=C\c2ccc(Cl)c([N+](=O)[O-])c2)C1=O)C1=COCCO1	-7	0.62	5	6	-1.5	38	7.3	-0.9	i
COc1cc(/C=N/NC(=O)C2COc3ccccc3O2)ccc1O (stereo not drawn)	99*	.	5	4	2.2	6	.	-1.1	i
N#CCCN(C(=O)COC(=O)CCN=C1NS(=O)(=O)c2ccccc21)c1ccc(F)cc1	-3	0.7	5	6	1.7	-9	0.5	2.0	i
O=C(O)c1cccc(NC(=O)c2cn(-c3ccccc3)nc2-c2cc3ccccc3o2)c1	.	0.67	4	3	-0.4	-2	3.1	-2.7	i
Nc1nonc1-n1nnc(C(=O)N/N=C/c2ccncc2)c1CSc1ccc(Cl)cc1	0	.	15	10	1.3	4	.	0.1	i
O=c1[nH]nc(SCc2nnc(-c3cccc(Cl)c3)o2)n1C1CCCCC1	13	0.7	13	11	2.3	-10	7.8	2.0	i

Assay outcomes from PubChem.

An excerpt; the hit share may differ from the screen's.
